Source: PubChem (National Center for Advancing Translational Sciences (NCATS))
gsp antag = qHTS for Antagonists of gsp, the Etiologic Mutation Responsible for Fibrous Dysplasia/McCune-Albright Syndrome: qHTS; gsp-mutant cells, cAMP HTRF, 30 min; control for the full effect not named in the record; Potency, µM (titrated, usually from 76.9 µM), inactives show at the highest dose activity change, negative = inhibition, actives largely listed as inhibitors; 340,000 tested, 0.4% active; AID 624288, 2012; active = falling curve of any shape with a large fitted effect; inconclusive = falling curve, mostly with a smaller effect; inactive = flat or rising curve; cell line not stated here;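 note: intracellular cAMP measured with PDE inhibitor Ro 20-1724 present during compound exposure; potency is the fitted concentration of half-maximal effect; % is set by controls: 0 for no effect and ±100 for the full control effect; nearly all actives have a fitted effect of over 65% in size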
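Cells in G418 medium, seeded 16-24 h, 37C; buffer exchange to DPBS + 1 mM CaCl2, 0.5 mM MgCl2, 0.05% BSA; cpds in DMSO + […] (300 uM stock), 30 min 37C; HTRF cAMP detection.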
CtBP-E1A inh = qHTS Assay for Inhibitors of the CtBP/E1A Interaction; 340,000 tested, 0.49% active; AlphaScreen GST-E1A/His-CtBP binding, 1536-well; active compounds read low; control for the full effect not named in the record; activity change, % (no concentration beside the values); in the data active means activity change below about -65%; inconclusive means about -30% to -65%; inactive means above about -30%; note: % is set by controls: 0 for no effect and ±100 for the full control effect
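GST-E1A and His-tagged CtBP (125 nM each as 5X stock) were preincubated with pin-transferred compound for 2 h at 37 °C in the dark, then glutathione donor and nickel acceptor beads were added for 1 h before AlphaScreen reading.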
D2 PAM = Beta-Arrestin HTS for Positive Allosteric Modulators of the Human D2 Dopamine Receptor: Potentiators; DiscoveRx D2 beta-arrestin cells, luminescence, 90 min; 100% = 57 uM dopamine signal; potentiation, % (no concentration beside the values); 360,000 tested, 0.23% active; active = potentiation of 50% or more; inconclusive = 30% to 50%; inactive = 30% or less;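 note: compound concentration not given in the record; tested on top of an EC20 dose of dopamine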
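PathHunter beta-arrestin assay in DiscoveRx D2 cells. Compounds were added with an EC20 of dopamine (50 nM final) for 90 min at 37 deg C. Luminescence was read 1 h after detection reagent, with 57 uM dopamine as the EC100 control.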
gsp agonist = qHTS for Agonist of gsp, the Etiologic Mutation Responsible for Fibrous Dysplasia/McCune-Albright Syndrome: qHTS; gsp mutant cells, cAMP HTRF, 30 min; control for the full effect not named in the record; Potency, µM (doses to about 76.9 µM), without a hit: top-dose activation (cAMP increase), actives largely listed as activators; 340,000 tested, 0.13% active; active = well fitted activation curve with a large enough effect; inconclusive = small, poorly fitted or top-dose-only effect, or another doubt; inactive = no such curve, though single readings can be large or run the other way; cell line not stated here;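 note: phosphodiesterase inhibitor Ro 20-1724 added with compounds to block cAMP breakdown; potency is the fitted concentration of half-maximal effect; nearly all actives have a fitted effect of over 60% in size; about a fifth of the inactives were tested at one dose only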
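Cells stably selected in G418 were plated at 2000/well, grown 16-24 hr, then given compounds in DMSO with the PDE inhibitor […] (300 uM solution added) for 30 min at 37C; cAMP was read by HTRF.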
D2 agonist = Beta-Arrestin HTS for Positive Allosteric Modulators of the Human D2 Dopamine Receptor: Agonists; D(2) dopamine receptor (Homo sapiens), P14416; DiscoveRx PathHunter D2 beta-arrestin, luminescence, 90 min; 100% = 57 uM dopamine signal; activation, % (no concentration beside the values); 360,000 tested, 0.084% active; in the data active = activation above about 40%; inconclusive = about 15% to 40%; inactive = below about 15%; note: compound concentration not given in the record; the text of the record calls up to 30% inactive
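Agonist mode: compounds alone added to overnight-plated D2 PathHunter cells for 90 min at 37 C, with 57 uM final dopamine (EC100) defining full response. Beta-arrestin recruitment detected by chemiluminescent reagent, read after 1 h at ambient temperature.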
Six1-Eya2 blk = qHTS Assay for Inhibitors of the Six1/Eya2 Interaction; AlphaScreen GST-Six1/His-Eya2 binding, biochemical; active compounds read low; control for the full effect not named in the record; activity change, % (no concentration beside the values); 360,000 tested, 0.56% active; in the data active = activity change below about -65%; inconclusive = about -30% to -65%; inactive = above about -30%; note: % is set by controls: 0 for no effect and ±100 for the full control effect
Target sequence (O00167 whole entry, looked up): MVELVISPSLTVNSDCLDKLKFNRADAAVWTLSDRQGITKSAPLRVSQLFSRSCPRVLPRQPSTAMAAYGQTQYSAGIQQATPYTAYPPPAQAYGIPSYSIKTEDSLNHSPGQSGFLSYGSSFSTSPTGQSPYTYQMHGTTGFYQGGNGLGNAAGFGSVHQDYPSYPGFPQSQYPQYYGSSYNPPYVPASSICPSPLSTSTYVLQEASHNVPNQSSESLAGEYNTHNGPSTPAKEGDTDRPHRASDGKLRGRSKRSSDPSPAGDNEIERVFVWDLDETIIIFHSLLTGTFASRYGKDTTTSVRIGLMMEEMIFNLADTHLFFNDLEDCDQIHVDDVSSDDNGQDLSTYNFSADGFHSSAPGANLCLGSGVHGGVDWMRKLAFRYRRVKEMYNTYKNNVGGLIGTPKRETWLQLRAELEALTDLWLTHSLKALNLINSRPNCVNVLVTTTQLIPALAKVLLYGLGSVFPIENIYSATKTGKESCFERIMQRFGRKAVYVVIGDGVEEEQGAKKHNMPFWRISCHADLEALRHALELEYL
Target sequence (Q15475 whole entry, looked up): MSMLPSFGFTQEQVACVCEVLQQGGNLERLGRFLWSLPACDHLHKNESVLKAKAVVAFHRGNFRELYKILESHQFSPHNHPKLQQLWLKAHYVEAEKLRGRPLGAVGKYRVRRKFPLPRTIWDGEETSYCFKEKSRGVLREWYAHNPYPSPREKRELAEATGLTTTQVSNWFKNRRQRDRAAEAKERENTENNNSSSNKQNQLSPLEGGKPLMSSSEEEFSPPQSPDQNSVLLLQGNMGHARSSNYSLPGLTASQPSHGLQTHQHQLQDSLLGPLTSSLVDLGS
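GST-Six1 + His-Eya2 (5X stock: 250/500 nM); Tris pH 8.0, 300 mM NaCl, 0.05% BSA, 0.02% Tween 20; GSH donor/Ni acceptor beads; 1 h 37 °C dark; AlphaScreen readout.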
The depositor's hits bear a star; ? = inconclusive; · = not tested or not shown; [ ] = dose if it differs, or a comment.

The first 2 entries (preview)
SMILES	gsp antag	CtBP-E1A inh	D2 PAM	gsp agonist	D2 agonist	Six1-Eya2 blk
CCCCCCOC(=O)NCC(O)c1ccccc1 (stereo not given)	15%	-13	3	22%	-0.5	-9
COc1cc2c(cc1OC)-c1c(OC)c(OC)cc3ccnc(c13)C2=O	-4%	-71*	2	·	-0.8	?

Main list, previewed entries included:
SMILES	gsp antag	CtBP-E1A inh	D2 PAM	gsp agonist	D2 agonist	Six1-Eya2 blk
CCCCCCOC(=O)NCC(O)c1ccccc1 (stereo not given)	15%	-13	3	22%	-0.5	-9
COc1cc2c(cc1OC)-c1c(OC)c(OC)cc3ccnc(c13)C2=O	-4%	-71*	2	·	-0.8	?
O=C(/C=C\c1ccco1)Nc1ccc(N2CCN(C(=O)c3ccccc3)CC2)cc1	-7%	0	2	-2%	1.9	0
C/C(=N\NC(=O)c1ccccc1)c1cc2cc([N+](=O)[O-])ccc2oc1=O	-10%	5	-18	16%	-8.4	?
Cc1ccc2[nH]c(=O)c(CN(Cc3ccccc3)Cc3nnnn3C3CCCC3)cc2c1	?	-2	-7	-30%[inhibitor]	-2.7	-1
COc1ccc([N+](=O)[O-])cc1NC(=O)CSc1nc(C)cc(C)n1	-1%	3	-23	18%	0.3	-6
O=C(O)c1ccccc1CSc1nnnn1-c1ccccc1	-25%	2	5	12%	4.9	7
COc1cc2c(cc1O)[C@@H]1Cc3cc(O)c(OC)cc3[C@H](C2)N1C	-5%	1	-1	·	-3.4	2
CCc1ccc(C(=O)C(C)OC(=O)c2nn(C)c(=O)c3ccccc23)cc1 (stereo not given)	?	-14	-11	5%	-1.7	0
Clc1ccc(-c2nnc(COc3ncnc4ccccc34)o2)cc1	3%	-1	-9	7%[15.4 µM]	-4.5	3
CC1=NN(c2ccc(F)cc2)C(=O)C1C(c1cccc(O)c1)c1c(C)[nH]n(-c2ccc(F)cc2)c1=O (stereo not given)	-6%	-20	-22	-24%	-3.1	-22
CC(C)c1ccc(Nc2ncccc2C(=O)O)cc1	·	-5	-4	-9%[15.4 µM]	-0.9	4
COc1ccc(C(=O)CSc2ccc(-c3ccccc3)nn2)cc1	-3%	-11	-9	-33%	3.0	6
CC(OC(=O)c1nn(C)c(=O)c2ccccc12)C(=O)NC1CCCCC1C (stereo not given)	12%	2	-3	9%[15.4 µM]	-2.4	-2
COc1ccc(/C=C/C(=O)NCC2COc3ccccc3O2)c(OC)c1 (stereo not given)	?	1	-6	-11%[15.4 µM]	-6.0	-7
Fc1ccc(-c2nc3ccc(Cl)cn3c2Cc2ccccc2)cc1	·	0	3	-66%[inhibitor]	-9.2	-4
CC(C)(C)NC(=O)C[C@H]1C[C@H](C(=O)N2CCCCC2)[C@@]2(C)c3[nH]c4ccc(Cl)cc4c3CCN2C1=O	5%	-19	1	·	-0.2	-4
CN(CCC#N)C(=O)COC(=O)[C@H](Cc1ccccc1)N1C(=O)c2ccccc2C1=O	0%	3	1	-10%	-2.5	4
COc1ccc(NC(=O)c2ccc3c(c2)OCO3)cc1	0%	·	-19	-15%	-0.2	-1
COc1ccc(OC)c(NC(=O)CCN2CCN(c3ccccc3OC)CC2)c1	-6%	·	-79	-52%[inhibitor]	-2.2	-1
O=C(CNC(=O)c1cccs1)c1ccc(Cl)cc1	-4%	2	-2	1%[15.4 µM]	-2.8	-1
CCOc1ccc(NC(=O)CN(C)C(=O)c2cc([N+](=O)[O-])ccc2N2CCOCC2)cc1OCC	8%	5	-26	?	-2.7	-7
CC(=O)NC1CCC(OC(=O)Nc2ccccc2)CC1 (stereo not given)	-11%	2	-12	17%[15.4 µM]	-1.2	10
CCN(CC(=O)NCc1cccs1)C(=O)/C=C/c1cccc(Cl)c1Cl	-6%	-2	-17	-23%	-5.4	-1
O=C(NCCC1=CCCCC1)N[C@@H](Cc1ccccc1)C(=O)O	13%	13	-11	-40%[inhibitor]	-1.7	0
Cc1cc2oc(=O)cc(CN3CCCCC3C)c2cc1C (stereo not given)	-18%	2	-7	-37%[inhibitor]	-1.4	8
COc1cccc(NC(=O)CN(C)C(=O)C(Sc2ccccc2)c2ccccc2)c1 (stereo not given)	-8%	-13	-13	1%[15.4 µM]	-3.9	0
C=C1C(=O)OC2C1CCC(C)=C1C(=O)C3OC3(C)C12 (stereo not given)	-12%	-10	-108	·	-7.8	-17
COc1ccccc1-n1nnnc1SCC(=O)NC1CCCC1	-8%	1	-1	-47%[inhibitor]	-2.4	0
CCOc1ccc(NC(=O)CCSc2nc3c(c(CC)c2C#N)C(=O)CC(C)(C)C3)cc1	-22%	-2	-11	-4%	-2.2	-1
O=C(NCc1ccccc1)C1CCC1	-11%	9	-7	29%	-0.2	11
O=C(COC(=O)CCCNC(=O)c1ccc(Cl)cc1)NC1CC1	-6%	3	9	-10%	0.5	2
Cc1cc(C)nc(Nc2cc([N+](=O)[O-])ccc2C)n1	-27%	-20	-3	-5%[15.4 µM]	0.1	-18
CC(=O)OC[C@H]1O[C@@H](Oc2cc3ccc(=O)oc3cc2OC(C)=O)[C@H](OC(C)=O)[C@@H](OC(C)=O)[C@@H]1OC(C)=O	-20%	3	·	·	-1.3	4
O=C(/C=C/c1cccc([N+](=O)[O-])c1)N1CCN(c2ccccn2)CC1	-18%	2	-6	-15%	-1.9	0
CN1C(=O)/C(=C/c2ccccc2Cl)Sc2ccc(C(=O)NCc3cccnc3)cc21	?	-1	-6	1%[15.4 µM]	1.5	-5
CCOP(=O)(c1ccc(N(C)C)cc1)C(O)c1ccc(Cl)cc1 (stereo not given)	5%	6	5	-11%	1.5	-1
Cc1ccc(C(=O)CN2C(=O)C(=O)N(Cc3ccccc3)C2=O)cc1	0%	0	-10	-6%[15.4 µM]	-4.2	5
CCC(C)c1ccc(NC(=O)COC(=O)CCNC(=O)c2ccco2)cc1 (stereo not given)	-12%	·	-4	-6%	4.2	0
CN1C[C@@H]2[C@@H]3C(=O)N(Cc4ccccc4)C(=O)[C@@H]3[C@](Cc3ccccc3)(C1=O)N2C(=O)c1ccc(Cl)cc1	-12%	-1	-7	-89%[inhibitor]	-3.5	-4
COc1cc([N+](=O)[O-])ccc1NC(=S)Nc1cc(C(=O)OC(C)C)cc(C(=O)OC(C)C)c1	-22%	-20	-23	24%	-4.7	-11
O=C(NC1CCCC1)C1CC(=O)N(CCc2ccccc2)C1 (stereo not given)	12%	1	4	28%	-0.4	3
CC1CC1C(=O)OCC(=O)Nc1ccc2[nH]c(=O)[nH]c2c1 (stereo not given)	8%	·	-3	-2%	1.3	-24
CCOC(=O)C1CCN(S(=O)(=O)c2csc(C(N)=O)c2)CC1	9%	5	-1	13%	2.8	1
CC(CCc1ccccc1)NC(=O)CNC(=O)c1cccs1 (stereo not given)	6%	7	5	22%	1.1	1
O=S(=O)(Nc1cccc(S(=O)(=O)N2CCCC2)c1)c1cccc(Br)c1	-6%	-5	-2	1%	-0.3	3
COc1cccc(/C(C)=N/N=C(\C)c2cccc(OC)c2)c1	-8%	37	2	-42%	-0.3	10
CC(C)N(C(=O)COC(=O)[C@H](C)NC(N)=O)c1ccccc1	0%	-3	-18	-16%[15.4 µM]	1.1	-2

An excerpt from above in order of the CtBP-E1A inh value, rising:
SMILES	CtBP-E1A inh	D2 PAM	gsp agonist	D2 agonist	Six1-Eya2 blk
COc1cc([N+](=O)[O-])ccc1NC(=S)Nc1cc(C(=O)OC(C)C)cc(C(=O)OC(C)C)c1	-20	-23	24%	-4.7	-11
CN1C[C@@H]2[C@@H]3C(=O)N(Cc4ccccc4)C(=O)[C@@H]3[C@](Cc3ccccc3)(C1=O)N2C(=O)c1ccc(Cl)cc1	-1	-7	-89%[inhibitor]	-3.5	-4
COc1cccc(/C(C)=N/N=C(\C)c2cccc(OC)c2)c1	37	2	-42%	-0.3	10

(next part)
SMILES	gsp antag	CtBP-E1A inh	D2 PAM	gsp agonist	D2 agonist	Six1-Eya2 blk
C/C(=N\O)C(=O)NCC1CCNCC1	12%	6	-12	-29%	-2.6	1
COC(=O)c1ccccc1NC(=O)c1ccc(-c2ccccc2F)o1	40%[activator]	8	-13	-25%	-1.4	7
O=C(Nc1ccc(C(=O)O)cc1)/C(=C\c1ccc2c(c1)OCO2)NC(=O)c1ccc(Br)o1	·	-3	-18	4%[15.4 µM]	1.7	-1
CN(C)CCN(C(=O)c1ccc(S(=O)(=O)N(C)c2ccccc2)cc1)c1nc2ccc(Cl)cc2s1	7%	3	-22	-27%	-2.9	1
CC(=O)Nc1ccc(S(=O)(=O)N2CCCc3ccccc32)cc1	-1%	6	-1	22%	1.2	3
Cc1cccc(CNc2ccc(C(CC(N)=O)NC(=O)c3ccccc3)cc2[N+](=O)[O-])c1 (stereo not given)	2%	1	-9	·	-3.8	0
CCOc1cc(C(=O)O/N=C(\N)c2ccc([N+](=O)[O-])cc2)cc(OCC)c1OCC	5%	-10	76*	-7%	?	-3
O=C(CN(C(=O)Cn1nnc(-c2cccs2)n1)c1ccc2c(c1)OCCO2)NCc1ccccc1	?	1	-2	-14%	-3.0	0
CCS(=O)c1ccccc1C(=O)O (stereo not given)	-6%	0	-11	21%	-3.4	-1
Oc1ccccc1N1CCN(C(=S)NCCc2ccccc2)CC1	-17%	11	3	14%	0.3	3
Nc1nc(NCC2CCCO2)nc(Nc2cccc(Cl)c2)c1[N+](=O)[O-] (stereo not given)	13%	1	-4	-4%[15.4 µM]	0.8	-1
O=C(NCc1cccnc1)c1ccccc1-c1ccccc1	-8%	14	-7	22%[15.4 µM]	-0.5	5
CC(C)(C)C(=O)Nc1ccccc1C(=O)Nc1ccncc1	-5%	1	?	-28%	2.3	-1
COC(=O)Cc1cc(C)cc2c(=O)cc(-c3ccoc3)oc12	-9%	-3	2	-32%[inhibitor]	-1.5	-29
Cc1ccc(-c2nc3cccnc3s2)cc1NS(=O)(=O)c1ccc2c(c1)OCCO2	-4%	-2	-3	-1%	-1.5	-8
COc1ccc(/C=C/C(=O)Nc2ccc(OC)cc2[N+](=O)[O-])cc1	9%	-3	1	-52%[inhibitor]	3.3	-7
CC(=O)N1CCc2[nH]c3ccccc3c2C1	2%	-16	-5	22%	-2.1	-5
Cc1cc(C(C)(C)C)oc1C(=O)Nc1ccc(CC(=O)O)cc1	8%	-2	-15	20%	-1.0	8
NC(=O)C1=C[C@H](c2csc3ccccc23)C[C@H](OCCCCO)O1	-8%	0	-4	·	0.7	-1
CCOC(=O)C1(Cc2ccccc2)CCCN(C(=O)COc2ccccc2OC)C1 (stereo not given)	·	-5	-8	-25%	-2.6	-6
C#CCOCCOCCOCCNc1nc(N2CCN(C(=O)[C@H](CCCCN)n3cc(CN)nn3)CC2)nc(N2CCN(C(=O)[C@H](CCCN=C(N)N)n3cc(C(N)[C@H](C)CC)nn3)CC2)n1 (stereo not given in full)	10%	-17	-11	·	-5.3	-5
